Screening data deposited in PubChem BioAssay by Broad Institute.
BJeLR viability = BJeLR cell viability reduction; BJeLR fibroblasts viability, CellTiterGlo ATP luminescence, 48 h; HRASV12, hTERT and SV40 LT/ST transformed; viability loss activity score, % (no concentration beside the values); actives 0.64% (n = 30,000); AID 2275; in the data active means viability loss activity score above about 50%; about a fifth of its hits are not listed in these tables;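 further: higher score means fewer live cells and less ATP luminescence; stock transfer was 50 or 100 nL into about 30 µL; 0% = vehicle wells and 100% = a reference killing control; one replicate is shown; the record names a cut of 85%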
A1 inhib = blocks A1 activity; caspase activation, % (concentration not given with the values); AID 2241; MEF A1-2A-BIM cells, caspase-Glo luminescence, 3 h; percent of clofoctol signal, DMSO as zero; actives 0.51% (n = 21,000);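 active means most replicate scores above 10, or exactly half above 10 with mean activity above 10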;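 further: effector caspase 3 and 7 activity cleaving a DEVD luciferin substrate; 50 nL library stock added to about 30 µL; numbers are from one replicate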
* hit, by the source's call; / = not tested or not shown. Some of the compounds tested; rates above refer to the full screens.

SMILES	BJeLR viability	A1 inhib
C[C@H]1CN([C@@H](C)CO)C(=O)c2cccc(NC(=O)Nc3ccc(F)cc3)c2O[C@H]1CN(C)CC1CC1	8.8	/
C[C@H]1CN([C@@H](C)CO)C(=O)c2cccc(NC(=O)Nc3ccccc3)c2O[C@H]1CN(C)C(=O)Nc1ccccc1	-3.9	/
N/C(CN1CCCCC1)=N\O	-6.2	0.4
COc1ccc(CN(C)C[C@@H]2Oc3ccc(NC(=O)Cc4ccccc4)cc3C(=O)N([C@@H](C)CO)C[C@@H]2C)cc1	-3.0	-0.1
CCCN1C(=O)c2cc(C(=O)NCc3cccs3)ccc2C1O (centres undefined)	2.6	/
COc1ccc(NC(=O)Nc2cccc3c2O[C@@H](CN(C)C(=O)Nc2ccc(C(F)(F)F)cc2)[C@@H](C)CN([C@H](C)CO)C3=O)cc1	-5.7	/
O=S1(=O)C=C(SCCN2CCOCC2)c2ccccc21	0.8	-0.2
Cc1noc(C)c1NC(=O)Nc1cccc2c1O[C@@H](CN(C)C(=O)Nc1cccc3ccccc13)[C@@H](C)CN([C@H](C)CO)C2=O	0.5	/
CCc1nnc2sc(-c3ccc(N)cc3)nn12	0.6	-1.3
C[C@H](CO)N1C[C@H](C)[C@@H](CN(C)S(=O)(=O)c2cccs2)Oc2ccc(NC(=O)c3ccncc3)cc2C1=O	1.2	0.8
CC1CC(NC(=S)N(C)C)CC(C)(C)C1 (centres undefined)	-0.6	0.1
COc1ccc(NC(=O)Nc2ccc3c(c2)C(=O)N([C@H](C)CO)C[C@@H](C)[C@H](CN(C)CC2CCCCC2)O3)cc1	-0.1	-0.1
COc1cc(/C=C/c2cc(O)cc(O)c2)ccc1O[C@@H]1O[C@H](CO)[C@@H](O)[C@H](O)[C@H]1O	3.3	-0.2
CCN(CC)C(=O)Oc1ccnc2cc(Cl)ccc12	-4.3	-0.6
O=C(COc1ccccc1Br)Nn1c(=S)[nH]c2ccccc2c1=O	1.8	0.9
CCOC(=O)c1ccc2nc(C(F)(F)F)nc(NCCc3ccc(OC)cc3)c2c1	1.5	-0.8
CC(=O)N/C(N)=N/c1nc2ccccc2o1	-2.4	-0.6
Nc1cc(C(F)(F)F)ccc1Sc1nc2ccccc2s1	-2.7	-0.6
COC(=O)[C@H]1[C@H]2C[C@@H]3c4[nH]c5cc(OC)ccc5c4CCN3C[C@H]2C[C@@H](OC(=O)/C=C/c2cc(OC)c(OC)c(OC)c2)[C@@H]1OC	11	-0.3
CC(C)=CCOc1cc2oc(=O)ccc2cc1O	14	0.4
COc1ccc(S(=O)(=O)Nc2ccc3c(c2)C(=O)N([C@@H](C)CO)C[C@H](C)[C@H](CN(C)Cc2ccc(-c4ccccc4)cc2)O3)cc1	-6.2	-0.1
O=C1CSC(c2ccccc2)N1c1cccnc1 (centres undefined)	-1.1	0.8
C[C@H](CO)N1C[C@H](C)[C@H](CN(C)Cc2ccc(C(=O)O)cc2)Oc2c(NS(=O)(=O)c3cccs3)cccc2C1=O	3.1	/
C[C@H](CO)N1C[C@H](C)[C@H](CN(C)S(=O)(=O)c2ccc(Cl)cc2)Oc2ccc(NC(=O)Nc3ccc(C(F)(F)F)cc3)cc2C1=O	2.0	0.4
O=C1/C(=C/c2cc(Br)cs2)CCC1C1CCCC1 (centres undefined)	-1.4	/
COc1ccccc1N1CCN(C(=O)c2cnn(-c3ccc(Cl)cc3)c2C)CC1	-0.6	0.6
C[C@H]1CN([C@@H](C)CO)C(=O)c2cc(NS(=O)(=O)c3ccccc3)ccc2O[C@@H]1CN(C)Cc1ccc(C(F)(F)F)cc1	1.0	0.3
O=C1c2ccccc2C(=O)C1c1cc(Cl)cc(Cl)c1	-4.0	-5.0
O=C(Cc1cn(Cc2cccc(Cl)c2)c2ccccc12)Nc1nc2ccccc2s1	5.8	/
C[C@H](CO)N1C[C@H](C)[C@H](CN(C)Cc2ccc(Oc3ccccc3)cc2)Oc2ccc(NS(=O)(=O)c3ccc(F)cc3)cc2C1=O	-1.6	0.4
COc1ccc(NC(=O)Nc2ccc3c(c2)C(=O)N([C@@H](C)CO)C[C@H](C)[C@H](CN(C)C(=O)Nc2ccc(F)cc2)O3)cc1	-3.5	-1.1
CCc1ccc(C2CC(=O)NC3=C2C(=O)CCC3)cc1 (centres undefined)	-0.6	/
COc1ccc(S(=O)(=O)Nc2ccc3c(c2)C(=O)N([C@@H](C)CO)C[C@H](C)[C@H](CN(C)Cc2ccccc2)O3)cc1	1.3	-0.2
CSc1ccc(-c2cc(=O)c3ccccc3o2)cc1	4.6	-6.0
Cc1ccccc1OCC(O)Cn1c2ccccc2c2ccccc21 (centres undefined)	-1.1	1.5
C[C@@H]1CN([C@@H](C)CO)C(=O)c2cccc(NC(=O)c3cnccn3)c2O[C@@H]1CN(C)Cc1ccncc1	-2.0	/
C[C@H]1CN([C@@H](C)CO)C(=O)c2cccc(NC(=O)c3cnccn3)c2O[C@@H]1CN(C)Cc1ccccc1	1.5	/
C[C@@H]1CN([C@@H](C)CO)C(=O)c2cc(NC(=O)CCCN(C)C)ccc2O[C@H]1CN(C)S(=O)(=O)c1cn(C)cn1	-0.1	-0.6
C[C@H]1CN([C@@H](C)CO)C(=O)c2cc(NS(=O)(=O)c3ccc(Cl)cc3)ccc2O[C@H]1CN(C)Cc1ccc(-c2ccccc2)cc1	1.4	0.8
O=c1c2ccccc2c(-c2ccccc2)nn1Cc1ccccc1	-2.9	0.5
Cc1ccc(S(=O)(=O)Nc2cccc3c2O[C@@H](CN(C)C(=O)Nc2ccc(C(F)(F)F)cc2)[C@@H](C)CN([C@H](C)CO)C3=O)cc1	1.1	/
C[C@H]1CN([C@@H](C)CO)C(=O)c2cccc(NC(=O)c3cnccn3)c2O[C@H]1CN(C)CC1CCCCC1	2.1	/
O=C(NCc1csc(-c2cccs2)n1)c1ccno1	0.3	1.6
C[C@H](CO)N1C[C@H](C)[C@H](CN(C)C(=O)NC2CCCCC2)Oc2ccc(NC(=O)Nc3ccccc3)cc2C1=O	-7.5	-0.3
COc1cccc2sc(N(C)c3ccccc3)nc12	-2.7	/
CN1CCCNC1c1ccc(-c2ccc(Br)cc2)o1 (centres undefined)	2.9	-1.3
CC(C)NC(=O)Nc1cccc2c1O[C@H](CN(C)Cc1ccc(C(=O)O)cc1)[C@H](C)CN([C@@H](C)CO)C2=O	2.5	/
Cc1noc(C)c1NC(=O)Nc1ccc2c(c1)C(=O)N([C@H](C)CO)C[C@H](C)[C@@H](CN(C)S(=O)(=O)c1cn(C)cn1)O2	0.7	0.2

Part of the list above in order of number of heavy atoms, rising.
SMILES	BJeLR viability	A1 inhib
CC1CC(NC(=S)N(C)C)CC(C)(C)C1 (centres undefined)	-0.6	0.1
CCc1nnc2sc(-c3ccc(N)cc3)nn12	0.6	-1.3
Cc1ccccc1OCC(O)Cn1c2ccccc2c2ccccc21 (centres undefined)	-1.1	1.5
COC(=O)[C@H]1[C@H]2C[C@@H]3c4[nH]c5cc(OC)ccc5c4CCN3C[C@H]2C[C@@H](OC(=O)/C=C/c2cc(OC)c(OC)c(OC)c2)[C@@H]1OC	11	-0.3

Next part.
SMILES	BJeLR viability	A1 inhib
Cc1ccc2nc(-c3ccccc3)cn2c1	78*	-6.5
COc1ccc(S(=O)(=O)Nc2cccc3c2O[C@H](CN(C)Cc2ccc(Cl)c(Cl)c2)[C@@H](C)CN([C@@H](C)CO)C3=O)cc1	2.4	/
C[C@H](CO)N1C[C@H](C)[C@@H](CN(C)Cc2ccc(-c3ccccc3)cc2)Oc2ccc(NC(=O)Cc3cn(C)c4ccccc34)cc2C1=O	0.9	0.6
COc1ccc(C2=CC(=O)N(c3ccccc3)C(c3ccccc3)O2)cc1 (centres undefined)	3.5	-0.3
C[C@@H]1O[C@@H](Oc2ccc3c(=O)c(-c4ccc(O)cc4)coc3c2)[C@H](O)[C@H](O)[C@H]1O	2.3	-0.5
CCN(CC)C(=O)c1oc2ccc(S(=O)(=O)N3CCCC3)cc2c1C	-0.4	/
COc1cc2c(cc1OC)C(C)N(C(=O)c1nn(-c3ccccc3)nc1C)CC2 (centres undefined)	-4.2	-0.2
CN(Cc1ccccc1)C(=O)c1cc2c(s1)-c1ccccc1S(=O)(=O)C2	4.7	-0.3
CCCN(CCC)C(=O)c1ccc2c(c1)N(Cc1ccccc1F)C(=O)c1ccccc1S2(=O)=O	-4.8	/
COC(=O)c1cc(C#N)c(C)nc1Sc1nccn1-c1cc(Cl)ccc1Cl	-2.7	/
O=C(CSc1ccccc1C(=O)O)c1ccc(Cl)cc1	-8.3	-3.9
CC(C)(C)NS(=O)(=O)c1ccc(F)cc1	4.8	-0.2
C[C@H](CO)N1C[C@H](C)[C@H](CN(C)Cc2ccc(C(F)(F)F)cc2)Oc2c(NC(=O)c3ccncc3)cccc2C1=O	-2.7	/
Cc1cc(NCc2ccco2)c2ccccc2n1	6.3	-1.5
C[C@@H]1CN([C@H](C)CO)C(=O)c2cc(NC(=O)CCC(F)(F)F)ccc2O[C@@H]1CN(C)Cc1ccc(C(=O)O)cc1	1.3	0.0
Cc1ccc(N2C3=C(C(=O)CC(C)(C)C3)C(c3cccs3)C3=C2CC(C)(C)CC3=O)cc1C	-1.5	-1.5
CCCC(=O)NCc1cn2ccsc2n1	-4.3	0.2
CC(C)CC(NC(=O)c1ccc(C23CC4CC(CC(C4)C2)C3)cc1)C(=O)NCc1cccnc1 (centres undefined)	-4.2	/
CC(C)NC(=O)N(C)C[C@@H]1Oc2ccc(NS(=O)(=O)c3cn(C)cn3)cc2C(=O)N([C@H](C)CO)C[C@@H]1C	2.7	0.6
COc1ccc(S(=O)(=O)Nc2ccc3c(c2)C(=O)N([C@@H](C)CO)C[C@@H](C)[C@H](CN(C)S(C)(=O)=O)O3)cc1	-0.8	0.1
C[C@H]1CN([C@@H](C)CO)C(=O)c2cc(NC(=O)Nc3cccc4ccccc34)ccc2O[C@H]1CN(C)S(=O)(=O)c1ccc(Cl)cc1	-6.0	0.3
N#CC1=C(N)Oc2nc(-c3ccccc3)[nH]c2C1c1ccc(OCC(N)=O)cc1 (centres undefined)	-2.1	0.1
C[C@H](CO)N1C[C@H](C)[C@@H](CN(C)S(=O)(=O)c2ccc(F)cc2)Oc2c(NC(=O)c3cnccn3)cccc2C1=O	1.0	/
C[C@H](CO)N1C[C@H](C)[C@H](CN(C)Cc2ccc(Oc3ccccc3)cc2)Oc2c(NS(C)(=O)=O)cccc2C1=O	2.3	/

Profiles as entered above:
`C[C@@H]1CN([C@H](C)CO)C(=O)c2cc(NC(=O)CCC(F)(F)F)ccc2O[C@@H]1CN(C)Cc1ccc(C(=O)O)cc1` in the list: BJeLR viability: 1.3; A1 inhib: 0.0
`Cc1cc(NCc2ccco2)c2ccccc2n1` in the list: BJeLR viability: 6.3; A1 inhib: -1.5
`COc1ccc(S(=O)(=O)Nc2ccc3c(c2)C(=O)N([C@@H](C)CO)C[C@@H](C)[C@H](CN(C)S(C)(=O)=O)O3)cc1` in the list: BJeLR viability: -0.8; A1 inhib: 0.1

(list continues)
SMILES	BJeLR viability	A1 inhib
Cc1c(C#N)c(N=CN(C)C)c(C(=O)c2ccccc2)n1-c1ccccc1	-2.4	0.2
COc1ccc(-n2c(N)c(-c3nc4ccccc4s3)c3nc(C#N)c(C#N)nc32)cc1	-1.5	-0.5
C[C@H](CO)N1C[C@H](C)[C@H](CN(C)Cc2ccc3c(c2)OCO3)Oc2ccc(NS(=O)(=O)c3ccccc3)cc2C1=O	-2.0	-0.7
CNC[C@H]1Oc2c(NC(=O)Nc3ccccc3)cccc2C(=O)N([C@H](C)CO)C[C@@H]1C	2.2	/
C[C@H](CO)N1C[C@H](C)[C@H](CN(C)S(=O)(=O)c2ccccc2)Oc2ccc(NS(=O)(=O)c3ccccc3)cc2C1=O	3.6	-0.3
Cc1cc2cc(CNC(=O)/C=C\c3ccccc3)ccc2[nH]1	0.8	/
CC(C)NC(=O)Nc1ccc2c(c1)C(=O)N([C@H](C)CO)C[C@H](C)[C@H](CN(C)Cc1ccccc1)O2	-0.7	-0.1
C[C@H](CO)N1C[C@H](C)[C@@H](CN(C)C(=O)Nc2ccccc2)Oc2c(NS(=O)(=O)c3cccs3)cccc2C1=O	2.5	/
COc1ccc(S(=O)(=O)N(C)C[C@H]2Oc3ccc(NS(=O)(=O)c4ccc(F)cc4)cc3C(=O)N([C@@H](C)CO)C[C@H]2C)cc1	1.3	-0.9
CCc1ccc(/C=C2\NC(=S)N(C3CCCCC3)C2=O)cc1	-1.8	/
C[C@@H]1CC[C@]2(C(=O)OC3OC(COC4OC(CO)C(O[C@@H]5O[C@@H](C)[C@H](O)[C@@H](O)[C@H]5O)C(O)C4O)C(O)C(O)C3O)CC[C@]3(C)C(=CCC4[C@@]5(C)CC[C@@H](O)[C@](C)(C(=O)O)C5CC[C@]43C)C2[C@H]1C (some centres undefined)	-5.5	0.0
Cc1noc(C)c1S(=O)(=O)Nc1ccc2c(c1)C(=O)N([C@@H](C)CO)C[C@@H](C)[C@H](CN(C)CC1CCCCC1)O2	-4.1	-0.1
O=C(CC(NC1CC1)C(=O)O)c1ccc(Cl)cc1 (centres undefined)	4.8	0.1
NC[C@@H]1O[C@H](c2ccccc2)Cc2c1ccc(O)c2O	-1.7	0.2
Cc1cc(NC(=O)C(C)Sc2nc(-c3ccccc3)cc(C(F)(F)F)n2)no1 (centres undefined)	5.2	-0.5
CCN(c1ccccc1)S(=O)(=O)c1cccs1	-6.6	/
O=C1/C(=C/c2ccccn2)CC/C1=C\c1ccccn1	12	1.2
CSc1sc(C(=O)/C=C/N(C)C)c(-c2ccccc2)c1C#N	-0.9	0.8
